DUX4 txn inh = DUX4-mediated transcription inhibition; 293T-iDUX4 ZSCAN4-Gaussia luciferase reporter, 24 h; active compounds read low; activity change, negative = inhibition, % (concentration not given with the values); hit rate 0.8% among 37,000; AID 1224904;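 active means -10% or lower and over 25 points stronger than a control reporter; inconclusive means -10% or lower with a smaller gap; inactive means above -10%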;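 further: 0% = median of neutral control wells and -100% = median of positive control wells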
DUX4 txn inh difference = also measured in DUX4 txn inh; calls as there; Gaussia minus Italica difference, %; measured here: selective DUX4 reporter inhibition;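 worked out from the two reporters; negative = selective loss of the DUX4 reporter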
DUX4 txn inh control = second read-out of DUX4 txn inh, no call of its own (marks repeat the call); activity change, negative = inhibition, %; measured here: Italica tet-on control reporter;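 0 = neutral control and -100 = positive control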
Starred values were filed as active, the others as inactive; ? = inconclusive; · = no result given; & = joins results of further samples. A portion of the library; the hit share may differ from the screen's.

SMILES	DUX4 txn inh	DUX4 txn inh difference	DUX4 txn inh control
CO[C@H]1CN(C)C(=O)c2cc(NC(=O)C3CCCCC3)ccc2OC[C@@H](C)N(Cc2cccnc2)C[C@H]1C	2.2	3.1	-1.0
COCCNC(=O)C[C@H]1C[C@H]2c3cc(NC(=O)c4ccc5c(c4)OCO5)ccc3O[C@H]2[C@@H](CO)O1	-1.1	-2.1	0.9
O=C(C[C@@H]1C=C[C@@H](NS(=O)(=O)c2cccc(F)c2)[C@@H](CO)O1)N1CCCCC1	0.4	-6.2	6.6
C[C@@H]1CN([C@H](C)CO)C(=O)c2cc(NC(=O)c3ccccc3)ccc2O[C@@H](C)CCCCO[C@@H]1CN(C)Cc1ccc(C(F)(F)F)cc1	4.3	-1.6	5.9
O=C(C[C@H]1CC[C@H]2[C@@H](COC[C@@H](O)CN2S(=O)(=O)c2ccccc2Cl)O1)N1CCC(Cc2ccccc2)CC1	?	·	·
COCC(=O)N1[C@@H]2Cn3c(ccc(/C=C/c4ccccc4)c3=O)[C@H]1[C@@H](C(=O)N1CCCCC1)[C@@H]2CO	6.9	-3.6	10.5
CCCNC(=O)[C@H]1[C@H](CO)[C@H]2Cn3c(ccc(C4=CCCCC4)c3=O)[C@@H]1N2CCC	-5.9	-10.6	4.7
CO[C@H](CN(C)S(=O)(=O)c1ccc(F)cc1)[C@H](C)CN(Cc1ccccc1Cl)[C@@H](C)CO	-5.1	-3.4	-1.7
Cc1ccc(S(=O)(=O)N(C)C[C@H]2OCCCC[C@@H](C)Oc3ccc(NC(=O)C4CCCCC4)cc3C(=O)N([C@H](C)CO)C[C@H]2C)cc1	0.6	0.2	0.4
CN1C(=O)c2cc(NC(=O)Cc3cccs3)ccc2OC[C@H]2O[C@H](CC(=O)NCCc3ccncc3)CC[C@@H]21	1.0	-2.4	3.5
CCc1cnc(N2[C@H](C#N)[C@H](c3ccccc3)[C@H]2CO)s1	-2.8	-1.2	-1.6
C[C@@H]1CCCCO[C@H](CN(C)C(=O)Nc2cccc3ccccc23)[C@@H](C)CN([C@@H](C)CO)C(=O)c2cc(N(C)C)ccc2O1	8.8	4.1	4.7
C/C=C/c1ccc([C@H]2[C@H](CO)N(C(=O)CN(C)C)C23CN(C(=O)C2CC2)C3)cc1	5.8	0.4	5.4
CN1CCN(C(=O)C[C@@H]2C=C[C@@H](NC(=O)Nc3ccccc3F)[C@H](CO)O2)CC1	5.6	4.3	1.3
COC(=O)C[C@@H]1C[C@@H]2c3cc(NC(=O)c4cccnc4)ccc3O[C@@H]2[C@@H](CO)O1	4.2	2.6	1.6

Quoted from the listing.
For DUX4 txn inh control, C[C@@H]1CN([C@H](C)CO)C(=O)c2cc(NC(=O)c3ccccc3)ccc2O[C@@H](C)CCCCO[C@@H]1CN(C)Cc1ccc(C(F)(F)F)cc1 shows 5.9
For DUX4 txn inh, COC(=O)C[C@@H]1C[C@@H]2c3cc(NC(=O)c4cccnc4)ccc3O[C@@H]2[C@@H](CO)O1 shows 4.2
For DUX4 txn inh control, Cc1ccc(S(=O)(=O)N(C)C[C@H]2OCCCC[C@@H](C)Oc3ccc(NC(=O)C4CCCCC4)cc3C(=O)N([C@H](C)CO)C[C@H]2C)cc1 shows 0.4

Additional records.
SMILES	DUX4 txn inh	DUX4 txn inh difference	DUX4 txn inh control
O=C(Cc1ccccc1)N1C[C@H]2[C@@H](c3ccccc31)[C@H](CO)N2C(=O)Cc1ccccc1	0.4	2.6	-2.2
CCCNC(=O)C[C@H]1CC[C@@H]2[C@H](COc3ccc(NC(=O)Nc4c(C)noc4C)cc3C(=O)N2C)O1	-3.0	-6.0	3.0
COc1cccc(CN(C)C[C@H]2OCc3cn(nn3)CCCC(=O)N([C@H](C)CO)C[C@@H]2C)c1	0.0	-2.9	3.0
CCCC(=O)Nc1ccc2c(c1)C(=O)N(C)[C@H]1CC[C@@H](CC(=O)NCCOC)O[C@@H]1CO2	-3.3	-5.2	1.9
COc1ccc2c3c(n(C)c2c1)[C@@H](CO)N(Cc1cccc(Cl)c1)CC31CN(C(C)=O)C1	-7.1	11.2	-18.2
CCN(C[C@H]1[C@H](c2ccccc2)[C@H](CO)N1C(C)=O)C(=O)NC1CCCC1	-4.5	-4.0	-0.5
CC(=O)NC[C@@H]1[C@@H](c2ccc(-c3ccccc3F)cc2)[C@H](CO)N1C(=O)C1CC1	-2.0	-2.3	0.3
COc1cccc(-c2ccc3c(c2)[C@H]2[C@H](CCN2C(=O)c2ccccc2F)[C@H](CO)N3C)c1	?	·	·
COc1ccc2c3c(n(C)c2c1)[C@H](CO)N(CC1CC1)CC31CN(C(=O)c2ccccc2)C1	?	·	·
CN1c2ccc(-c3cccc(C#N)c3)cc2[C@@H]2[C@@H](CCN2C(=O)C2CCCCC2)[C@@H]1CO	-6.1	11.3	-17.4
O=C(Cc1ccccc1)N1CC[C@@H]2[C@H](CO)Nc3ccc(-c4ccc(F)cc4)cc3[C@@H]21	?	·	·
Cc1noc(C)c1NC(=O)N(C)C[C@@H]1OCCCC[C@H](C)Oc2ccc(NC(=O)Nc3ccc(C(F)(F)F)cc3)cc2C(=O)N([C@@H](C)CO)C[C@@H]1C	-2.9	-0.4	-2.5
CCC(=O)N1[C@H](CO)[C@@H](c2ccccc2)[C@@H]1CN(CC)C(=O)c1ccccc1	-2.6	1.3	-3.9
N#C[C@@H]1[C@H](c2ccccc2C2=CCCC2)[C@@H](CO)N1C(=O)C1CC1	3.4	0.8	2.5
C[C@@H]1CCCCO[C@@H](CN(C)C(=O)c2ccncc2)[C@H](C)CN([C@H](C)CO)C(=O)c2cc(NS(=O)(=O)c3cn(C)cn3)ccc2O1	1.6	4.0	-2.4

Brought forward from above: two entries; new compounds follow.
SMILES	DUX4 txn inh	DUX4 txn inh difference	DUX4 txn inh control
N#C[C@@H]1[C@H](c2ccccc2C2=CCCC2)[C@@H](CO)N1C(=O)C1CC1	3.4	0.8	2.5
C[C@@H]1CCCCO[C@@H](CN(C)C(=O)c2ccncc2)[C@H](C)CN([C@H](C)CO)C(=O)c2cc(NS(=O)(=O)c3cn(C)cn3)ccc2O1	1.6	4.0	-2.4
CCCC(=O)N1CCC2(CC1)CN(Cc1ccncc1)[C@@H](CO)c1[nH]c3cc(OC)ccc3c12	1.7	4.3	-2.6
CO[C@@H]1CN(C)C(=O)c2ccc(NS(=O)(=O)CC(F)(F)F)cc2OC[C@@H](C)N(C(=O)NC(C)C)C[C@@H]1C	6.0	2.6	3.4
COCC(=O)N1CC2(C1)[C@H](c1ccc(-c3cccc(F)c3)cc1)[C@@H](CO)N2C(=O)COC	6.3	3.0	3.2
CNC[C@@H]1Oc2c(NC(=O)Nc3ccc(C(F)(F)F)cc3)cccc2C(=O)N([C@H](C)CO)C[C@H]1C	5.7	4.9	0.8
COc1ccc(NC(=O)Nc2ccc3c(c2)[C@@H]2C[C@@H](CC(=O)NCc4ccccn4)O[C@@H](CO)[C@@H]2O3)cc1	4.0	-1.1	5.1
CC(C)NC(=O)N(C)C[C@@H]1Oc2ncc(C#Cc3cccc(F)c3)cc2C(=O)N([C@H](C)CO)C[C@@H]1C	0.6	5.6	-5.0
O=C(C[C@H]1CC[C@H]2[C@@H](COC[C@@H](O)CN2Cc2cc(F)ccc2F)O1)N[C@H]1CCN(Cc2ccccc2)C1	?	·	·
O=C(N[C@H]1CC[C@@H](CCn2cc(-c3ccccn3)nn2)O[C@@H]1CO)c1ccncc1	-1.3	-1.9	0.7
O=C(CC1CC1)N1CC[C@@H]2[C@H]1c1cc(-c3cccc(F)c3)ccc1N[C@@H]2CO	?	·	·
CCS(=O)(=O)Nc1ccc2c(c1)C(=O)N(C)C[C@H](OC)[C@@H](C)CN(C(=O)CN(C)C)[C@@H](C)CO2	7.0	3.6	3.4
O=C(C1CCC1)N1C[C@@H]2N[C@H](C1)C2c1ccc(-c2cccc(F)c2)cc1 (stereo partly specified)	?	11.9	-7.3
COc1ccc(S(=O)(=O)Nc2ccc3c(c2)C(=O)N([C@H](C)CO)C[C@@H](C)[C@H](CN(C)C(=O)Nc2c(C)noc2C)OCCCC[C@@H](C)O3)cc1	1.6	2.2	-0.7
Cc1noc(C)c1S(=O)(=O)Nc1ccc2c(c1)C(=O)N([C@@H](C)CO)C[C@@H](C)[C@H](CN(C)Cc1ccc(C(=O)Nc3ccccc3N)cc1)O2	-3.3	0.3	-3.6
O=C(CC1CC1)N1CC(=O)N2[C@H](C1)[C@@H](c1ccc(C#Cc3ccccc3)cc1)[C@@H]2CO	?	·	·
CNC[C@@H]1Oc2cc(-c3cccnc3)ccc2S(=O)(=O)N([C@H](C)CO)C[C@H]1C	-3.6	-2.0	-1.6
C[C@@H]1CCCCO[C@@H](CN(C)S(=O)(=O)c2cn(C)cn2)[C@@H](C)CN([C@H](C)CO)C(=O)c2cc(NC(=O)CCCN(C)C)ccc2O1	2.8	3.9	-1.2
Cc1ccc(S(=O)(=O)N2[C@@H]3CNC[C@H]2C3c2ccc(/C=C/c3ccccc3)cc2)cc1 (stereo partly specified)	8.5&22.5	-1.5&6.6	9.9&15.9
C[C@@H]1CCCCO[C@H](CN(C)S(C)(=O)=O)[C@@H](C)CN([C@@H](C)CO)C(=O)c2cc(NC(=O)NC3CCCCC3)ccc2O1	-1.2	2.8	-4.0
CN1CCN(C(=O)c2cc3c(c(-c4cccc(-c5cccc(F)c5)c4)n2)[C@@H](CCO)N(S(=O)C(C)(C)C)C3)CC1 (stereo partly specified)	3.4	3.9	-0.5
COCCNC(=O)C[C@H]1CC[C@@H]2[C@H](COC[C@@H](O)CN2C(=O)Nc2ccccc2OC)O1	4.5	1.1	3.4
COCC(=O)N1[C@@H](CO)[C@H](c2ccccc2)C12CN(C(=O)NC1CCCC1)C2	5.9	0.5	5.4
C[C@H](CO)N1C[C@H](C)[C@H](CN(C)Cc2ccc(Cl)c(Cl)c2)Oc2c(NC(=O)c3ccc(-c4nccs4)cc3)cccc2C1=O	1.4	-5.1	6.5
Cc1ccc(S(=O)(=O)N(C)C[C@@H]2OCc3ccccc3-c3c(n(C)c4ccccc34)C(=O)N([C@H](C)CO)C[C@H]2C)cc1	-8.1	-9.2	1.1
CC1C=NC(S(=O)(=O)N2CC[C@@H]3[C@@H](CO)N(C)c4ccc(C5=CCCCC5)cc4[C@@H]32)=N1 (stereo partly specified)	14.8	13.2	1.6
COc1ccccc1NC(=O)N[C@@H]1CC[C@H](CCn2cc(-c3cccnc3)nn2)O[C@H]1CO	-3.9	-13.7	9.9
C[C@@H]1CN([C@H](C)CO)C(=O)c2cc(N(C)C)ccc2O[C@@H](C)CCCCO[C@@H]1CN(C)Cc1ccc(C(=O)O)cc1	6.9	6.9	0.0
CCC(=O)N1CC2(C1)[C@@H](c1ccccc1)[C@@H](CO)N2C(=O)NC(C)C	6.0	0.7	5.3
CCN1[C@H](C(=O)N[C@H](C)c2ccccc2)[C@@H](CO)[C@@H]2Cn3c(ccc(-c4cccc(F)c4)c3=O)[C@@H]21	-9.3	-4.1	-5.3
C[C@H]1CN([C@@H](C)CO)C(=O)c2ccccc2-c2ccccc2CO[C@H]1CN(C)Cc1ccc(C(=O)O)cc1	6.7	-3.9	10.6
C[C@H]1CCCCO[C@H](CN(C)C(=O)CCCN(C)C)[C@@H](C)CN([C@@H](C)CO)C(=O)c2cc(NC(=O)CCC(F)(F)F)ccc2O1	-0.4	1.5	-1.9
C[C@H]1CN([C@@H](C)CO)C(=O)c2cc(NC(=O)C3CC3)ccc2O[C@@H]1CN(C)S(=O)(=O)c1ccccc1	1.5	-4.8	6.4
COc1cccc(CNC(=O)C[C@@H]2CC[C@H]3[C@H](COc4ccc(NC(=O)c5cccs5)cc4C(=O)N3C)O2)c1	1.6	0.1	1.5
CN(C)CC(=O)N1[C@H](CO)[C@H](c2ccccc2)C12CN(CCC(F)(F)F)C2	1.6	-0.4	2.0
C[C@H](CO)N1C[C@H](C)[C@H](CN(C)C(=O)Nc2ccc(-c3ccccc3)cc2)OCc2ccccc2-c2ccccc2C1=O	2.8	3.0	-0.2
C[C@@H]1CN([C@@H](C)CO)C(=O)CCCn2nncc2CO[C@@H]1CN(C)C(=O)C1CCCCC1	-1.9	-4.4	2.5
CO[C@@H]1CN(C)C(=O)c2cc(NC(=O)c3ccc(Oc4ccccc4)cc3)ccc2OC[C@H](C)NC[C@@H]1C	?	·	·
COc1ccc2c3c(n(C)c2c1)[C@H](CO)N(C(=O)c1ccccn1)CC31CCN(C(C)=O)CC1	5.4	-5.4	10.7
COc1ccccc1CNC(=O)C[C@@H]1CC[C@H]2[C@@H](COc3ccc(NS(=O)(=O)c4ccc(C)cc4)cc3C(=O)N2C)O1	-3.7	-2.5	-1.3
COc1ccc2c3c(n(C)c2c1)[C@@H](CO)N(C(=O)Nc1ccc(F)cc1)CC31CCN(Cc2ccccn2)CC1	1.1	4.0	-2.8
CNC[C@@H]1Oc2ccc(NC(=O)Nc3ccc(C(F)(F)F)cc3)cc2CC(=O)N([C@H](C)CO)C[C@@H]1C	5.3	1.5	3.7
O=C(C[C@@H]1CC[C@@H]2[C@H](COC[C@H](O)CN2C(=O)Cc2ccccc2)O1)NC1Cc2ccccc2C1	-0.8	3.3	-4.1
COc1ccc(C[C@H]2CCc3cnnn3COC[C@@H](Cc3ccccc3)NC2=O)cc1	-2.2	-3.1	1.0
O=C(C[C@@H]1CC[C@H]2[C@@H](COC[C@H](O)CN2C(=O)c2ccncc2)O1)Nc1ccc(-c2ccccc2)cc1	-0.1	-9.1	8.9
Cc1noc(C)c1NC(=O)Nc1cccc2c1O[C@H](CN(C)Cc1ccc(C(=O)Nc3ccccc3N)cc1)[C@H](C)CN([C@@H](C)CO)C2=O	-5.4	-1.5	-3.8
CCC(=O)Nc1ccc2c(c1)C(=O)N(C)C[C@@H](OC)[C@H](C)CN(C(=O)c1cnccn1)[C@H](C)CO2	0.8	1.6	-0.8
O=C(CN1CCOCC1)N[C@@H]1CC[C@@H](CCNC(=O)Nc2cc(F)ccc2F)O[C@@H]1CO	7.0	4.1	2.9

High-throughput results deposited in PubChem BioAssay by Broad Institute.
